Compound activity: PubChem, several laboratories
FGF22 binding = shifts melting point of recombinant human FGF22; recombinant FGF22 thermal shift, SYPRO orange fluorescence; percent of sucrose octasulfate shift, DMSO zero; 340,000 compounds, 1.5% hits; calls only at 9.99 µM; Q9HCT0;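 active = melting point raised past a set limit in the mean and every replicate; inconclusive = no clear call; three in four hits are not shown here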
Target sequence (Q9HCT0 whole entry, looked up): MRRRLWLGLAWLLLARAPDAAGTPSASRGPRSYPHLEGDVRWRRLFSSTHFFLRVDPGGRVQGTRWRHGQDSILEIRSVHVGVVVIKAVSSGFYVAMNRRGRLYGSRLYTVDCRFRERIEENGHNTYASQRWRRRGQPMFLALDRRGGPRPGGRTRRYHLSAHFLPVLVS
Vif TR-FRET = inhibitors of Vif binding to APOBEC3G peptide, primary screen, biochemical, TR-FRET, GST-Vif 1-94, biotin-A3G peptide, dose response retest (AID 1117319) | TR-FRET GST-Vif / biotin-A3G peptide binding; higher % means a stronger effect; test concentration not given here; strong numbers were not always called active | inhibition, %, or IC50 in µM where a hit was titrated | 260,000 compounds, 0.57% hits;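 active = above the screen mean plus three standard deviations and confirmed in dose response; inconclusive = results disagree or hit not tested in dose response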;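 note: Vif residues 1-94 fused to GST binding biotinylated APOBEC3G peptide 110-148; 0% = full assay without inhibitor and 100% = GST in place of GST-Vif; retest series ran down from 100 µM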
Ecoli rRNA inh = selective bacterial rRNA inhibition in E. coli; E. coli WT GFP vs humanized-ribosome RFP mutants, fluorescence, 24 h; active compounds read low; DMSO median 0, no signal -100; GFP signal change (wild-type ribosome), % (test concentration not listed); 350,000 compounds, 1.6% hits;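 active = significant combined selectivity score with lowered wild-type GFP, culture density cut under 30%, mutant RFP and density less affected; inactive = any of these conditions unmet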; note: one replicate is shown; some compounds called inactive have numbers as strong as hits
MLL AF4-AF9 inh = MLL-AF4/AF9 protein interaction inhibition | inhibition, % at 10 µM | AlphaScreen, biotin-AF4 peptide binding to FLAG-AF9 | 350,000 compounds, 0.47% hits | P42568;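 active = every replicate reaching a set inhibition limit, whatever the replicate mean, cut at about 25% in these data; inconclusive = mean inhibition reaches that limit but some replicates miss it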;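 note: 0% = plate neutral control median and 100% = total signal loss; the record names both 10 and 1 µM as test concentration; the first replicate is given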
Target sequence (P42568 whole entry, looked up): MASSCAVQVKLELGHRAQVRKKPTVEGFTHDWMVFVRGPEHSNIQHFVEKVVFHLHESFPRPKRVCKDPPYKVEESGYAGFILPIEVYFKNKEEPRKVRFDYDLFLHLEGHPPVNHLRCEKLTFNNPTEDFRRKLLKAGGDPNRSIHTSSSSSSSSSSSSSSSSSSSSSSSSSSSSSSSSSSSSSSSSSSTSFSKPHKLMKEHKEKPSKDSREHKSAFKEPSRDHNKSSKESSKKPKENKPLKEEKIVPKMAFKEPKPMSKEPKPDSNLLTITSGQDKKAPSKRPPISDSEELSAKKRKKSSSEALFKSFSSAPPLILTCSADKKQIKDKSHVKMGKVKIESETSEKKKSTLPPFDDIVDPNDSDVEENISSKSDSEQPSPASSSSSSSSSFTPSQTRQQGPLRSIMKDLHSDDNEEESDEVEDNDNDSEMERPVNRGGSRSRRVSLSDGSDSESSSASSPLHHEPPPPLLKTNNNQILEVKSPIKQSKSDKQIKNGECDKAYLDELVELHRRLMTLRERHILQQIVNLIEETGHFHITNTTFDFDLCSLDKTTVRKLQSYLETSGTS
E coli growth = E. coli growth inhibition; AID 1053175; Escherichia coli growth, OD600, 23 h; active compounds read low; 330,000 compounds, 0.21% hits; OD600 absorbance (no concentration beside the values);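 active = OD600 absorbance below the run mean of sample wells minus 3.6 SD, in any replicate, cut at about 0.56 in these data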;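 note: stock transfer was 300 nL into about 60 µL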
ALR inh = blocks human ALR sulfhydryl oxidase activity; purified ALR, DTT oxidation, H2O2 HRP-luminol luminescence; P55789; 290,000 compounds, 3.8% hits; inhibition, % (concentration not given with the values);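 active = mean and each replicate at 75% or more; inconclusive = only one of the two met; inactive = neither met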;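 note: stock transfer was 7.5 nL into about 7.5 µL; 0% = neutral wells and 100% = wells with inactivated enzyme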
Target sequence (P55789 whole entry, looked up): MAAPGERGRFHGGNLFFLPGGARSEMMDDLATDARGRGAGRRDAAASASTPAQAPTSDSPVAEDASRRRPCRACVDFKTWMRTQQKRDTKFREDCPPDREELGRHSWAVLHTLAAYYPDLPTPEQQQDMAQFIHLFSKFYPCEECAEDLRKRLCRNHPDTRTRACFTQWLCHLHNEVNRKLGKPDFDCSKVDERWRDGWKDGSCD
HNF4A DNA FP = change in binding of human HNF4 alpha to DNA; P41235; HNF4a-FITC DNA binding, fluorescence polarization, 1 h; activity change, % at 10 µM; 360,000 compounds, 0.3% hits; AID 1224865; in the data active = activity change above about 30%, passing the limit was not always enough;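 note: controls were the assay level and a saturating level of protein; the project sought stronger binding though the title names inhibitors; some compounds called inactive have numbers as strong as hits; positive values seem to mean higher polarization but the record does not say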
Ecoli rRNA inh OD600 = further read-out of Ecoli rRNA inh, marked with its call; OD600 change, %; measured here: OD600 growth;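 optical density of the mix in the first replicate; 0 = DMSO median and -100 = no signal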
Ecoli rRNA inh RFP = recorded beside Ecoli rRNA inh, whose call it bears; RFP signal change, %; measured here: RFP humanized mutant strains;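 first replicate; 0 = DMSO median and -100 = no signal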
* marks the source's active call; other numbers are inactive results; i = inactive; u = inconclusive; x = not tested or not shown; & = joins results of further samples. Only part of the results is shown; rates above refer to the full screens.

Molecule	FGF22 binding	Vif TR-FRET	Ecoli rRNA inh	Ecoli rRNA inh OD600	Ecoli rRNA inh RFP	MLL AF4-AF9 inh	E coli growth	ALR inh	HNF4A DNA FP
Cc1cc(C(=O)Nc2cccc3c2O[C@H](CN(C)Cc2ccc(Cl)c(Cl)c2)[C@@H](C)CN([C@@H](C)CO)C3=O)n(C)n1	i	x	-11	-16	-0.5	1.3	x	x	x
CCOC(=O)c1ccc(NC(=O)CCC2COc3ccccc3O2)cc1 (stereo not drawn)	x	7%	-11	-54	8.0	x	0.72	-20	-4.8
Cc1ccc(C)c(NC(=O)CSc2nnc(-c3n[nH]c4ccccc34)o2)c1	x	23%	x	x	x	x	0.66	-18	0.4
CSc1ccc(CNC(=O)C2(C)CCCN2CC(C)C)cc1 (stereo not drawn)	i	x	4	9	0.7	2.8	x	x	-1.5
C=CCNc1nnc(SC2CC(=O)N(c3ccc(OC)cc3)C2=O)s1 (stereo not drawn)	x	-2%	x	x	x	x	0.64	37	0.9
O=c1c2ccccc2nc(/C=C/c2ccc(Br)cc2)n1CCCO	i	x	11	14	0.7	0.5	0.68	-13	-0.1
COc1ccc(/C=N/NC(=O)c2cccc(Br)c2)cc1CSc1ccccn1	x	-7%	x	x	x	x	x	-3	-2.0
Cc1sc2ncnc(NCC(c3ccccc3)N(C)C)c2c1C (stereo not drawn)	i	x	2	-4	0.2	4.6	0.68	1	-1.6
Cc1cc2nccc(-c3ccc(F)cc3)n2n1	i	2%	-1	-1	-3.4	-0.5	0.66	11	-0.3
CC(C)c1ccccc1NC(=O)c1cccc(NC(=O)c2ccccc2)c1	x	31%	x	x	x	x	0.72	0	-2.4
CCC(=O)Nc1ccc2c(c1)N(C(C)=O)c1ccccc1CC2	i	x	10	1	-0.1	-14	0.67	x	1.1
COc1ccc(-c2cc(-c3ccc(N)cc3)nc(N)c2C#N)cc1OC	i	x	-19	-25	-4.8	-26	0.68	99*	4.1
NS(=O)(=O)c1ccc(NC(=O)COC(=O)COc2ccccc2)cc1	i	5%	14	16	3.2	-1.7	0.66	-2	-3.3
O=C(COC(=O)c1ccc(Cl)c(S(=O)(=O)N2CCCCC2)c1)NCC1CCCO1 (stereo not drawn)	i	2%	-1	-3	-0.1	-0.9	0.65	-4	-0.2
N#Cc1ccc(OCC(=O)N/N=C/C2CC=CCC2)cc1 (stereo not drawn)	i	-2%	11	15	1.9	-1.3	x	2	2.8
CN(C)S(=O)(=O)c1ccc(S(=O)(=O)N(CC(=O)Nc2ccccc2)CC2CCCO2)cc1 (stereo not drawn)	x	23%&3%	x	x	x	x	0.75	1	2.4
CNS(=O)(=O)c1cccc(C(=O)OCC(=O)C23CC4CC(CC(C4)C2)C3)c1	x	4%	x	x	x	x	0.73	-16	1.3
COc1ccc(OC)c(S(=O)(=O)N2CCN(CC(O)COc3ccc(C#N)cc3)CC2)c1 (stereo not drawn)	i	x	-10	-7	-1.2	-3.7	0.69	-1	-2.0
CCOC(=O)C(=O)Nc1nnc(Cc2ccc(OC)c(OC)c2)s1	x	7%	x	x	x	x	0.67	-2	-0.2
CCOC(=O)Cn1c(=O)oc2cc(S(=O)(=O)N(C)Cc3ccco3)ccc21	i	6%	0	5	1.0	0.3	0.71	-2	-0.5
CC1=NN(C(=O)COc2cc(C)ccc2C(C)C)C(O)(c2ccccc2)C1 (stereo not drawn)	i	3%	6	-12	-2.3	-4.7	0.71	x	-0.1
CCOc1ccc2oc(C(=O)NC(C)(C)CC)c(C)c2c1	x	6%	-25	-38	-4.0	-4.2	0.65	1	-5.0
Cc1ccc(S(=O)(=O)N[C@H]2C=C[C@@H](CC(=O)O)O[C@@H]2CO)cc1	i	x	2	0	-0.2	-2.7	x	x	x
COCCNC(=O)/C(C#N)=C/c1cc(C)n(C2CCCCC2)c1C	i	-3%	-30	-38	3.8	8.9	0.6	0	4.2
CCN(CC)c1ccc(-n2c(C)cc(C=O)c2C)cc1	x	26%	x	x	x	x	0.71	98*	0.1

Reprinted from the part before: 2 compounds, followed by the next part.
Molecule	FGF22 binding	Vif TR-FRET	Ecoli rRNA inh	Ecoli rRNA inh OD600	Ecoli rRNA inh RFP	MLL AF4-AF9 inh	E coli growth	ALR inh	HNF4A DNA FP
COCCNC(=O)/C(C#N)=C/c1cc(C)n(C2CCCCC2)c1C	i	-3%	-30	-38	3.8	8.9	0.6	0	4.2
CCN(CC)c1ccc(-n2c(C)cc(C=O)c2C)cc1	x	26%	x	x	x	x	0.71	98*	0.1
CCCC(=O)N(c1ccccc1)C1C=CS(=O)(=O)C1 (stereo not drawn)	i	x	7	6	-0.5	-2.4	0.69	-1	-0.1
C[C@@H]1CN([C@@H](C)CO)C(=O)c2cc(N(C)C)ccc2O[C@H]1CN(C)Cc1ccc(C(=O)Nc2ccccc2N)cc1	i	x	-3	1	-1.1	9.1	x	x	x
COCC(=O)N1CCC2CC1c1c(-c3ccc(C(F)(F)F)cc3)cccc12 (stereo not drawn)	i	4%	-40	-64	-4.3	-1.0	x	x	2.2
Cc1nc(N2CCOCC2)[nH]c(=O)c1C(O)C(Cl)(Cl)Cl (stereo not drawn)	i	x	9	4	-3.2	0.3	0.69	x	4.3
CC(NC(=O)COc1ccc(/C=N/NC(=O)CO)cc1)c1ccccc1 (stereo not drawn)	i	x	5	10	-0.2	-1.7	x	-2	-1.4
O=C(Nc1nc(-c2cccnc2)cs1)c1ccc([N+](=O)[O-])cc1	i	1%	11	19	2.2	-1.9	0.66	-5	-6.2
COCCNC(=O)C1(C)Cc2c(-c3ccc(NC(C)=O)cc3)ccnc2O1 (stereo not drawn)	i	x	4	10	-2.7	-1.5	x	x	-6.5
Cc1ccnc(NC(=O)CC(NC(=O)c2ccccc2Cl)c2ccccc2)c1 (stereo not drawn)	i	-3%	1	1	0.9	-17	0.64	1	1.9
CCOC(=O)c1cc(-c2ccccc2)sc1NC(=O)COC(=O)c1cccc(S(N)(=O)=O)c1	i	x	1	20	0.3	-0.7	0.72	-2	3.4
Cc1[nH]n(-c2ccccc2)c(=O)c1/C=N/NC(=O)c1cccc(F)c1	i	x	-7	-53	-0.7	7.7	x	12	8.6
O=C1c2ccccc2C(=O)N1CCC#C/C=C1\c2ccccc2C(=O)N1c1ccccc1	i	-13%	1	-3	-0.1	3.7	x	x	8.7
OC[C@H]1[C@H](c2ccc(-c3cccc(F)c3)cc2)[C@@H]2CN(Cc3cncnc3)CCCCN12	i	x	-7	13	2.0	-2.8	x	x	x
Cc1ccccc1-c1ccc2c(c1)O[C@H](CN(C)C)[C@@H](C)CN([C@@H](C)CO)S2(=O)=O	i	x	-1	0	-0.9	2.1	x	x	x
COCCCNC(=O)c1cc(C(=O)c2ccccc2Br)c[nH]1	i	2%	6	11	-14	-1.8	0.72	3	-4.5
CCC(C)(C)n1nnnc1CN1CCN(c2nc3ccc(C)cc3cc2C#N)CC1	x	-19%	x	x	x	x	0.71	x	-2.6
CCOC(=O)C1=CCN(S(=O)(=O)c2ccc(Br)cc2)C1c1cccc(F)c1 (stereo not drawn)	i	x	-9	-24	-5.3	-2.3	x	x	x
O=C(CSc1cccc2cccnc12)OCC(=O)c1ccc(Br)cc1	x	-18%	x	x	x	x	0.71	-5	-1.5
CC1(C)CC(=O)C2=C(C1)NC(=O)CC2	i	x	14	9	3.9	-4.4	x	x	-3.0
C[C@@H](NC(=O)C[C@@H]1CC[C@@H]2[C@H](COC[C@H](O)CN2C(=O)Nc2cccc(F)c2)O1)c1ccccc1	i	x	-21*	-8.1*	-3.3*	-2.9	x	x	x
C=CCn1c(SCC(=O)NC2CCCCC2)nnc1-c1ccc(OC)cc1	x	27%	x	x	x	x	0.65	1	2.5
Nc1ccccc1C(=O)/C=C/c1ccc2c(c1)OCO2	i	3%	-33	-44	-2.7	19	x	19	3.2
CCCOC(=O)Cc1c(O)c2ccccc2[nH]c1=O	x	6%	x	x	x	x	0.79	0	-4.5
CCOC(=O)C(NC(=O)CC)(Nc1ccc(S(=O)(=O)Nc2onc(C)c2C)cc1)C(F)(F)F (stereo not drawn)	x	1%	x	x	x	x	0.68	-1	-2.7
CCCNC(=O)c1c(CSc2ccccc2)noc1C(=O)NCc1ccccc1	i	-8%	-17	-24	-9.6	-2.5	0.69	8	-2.8
COc1ccc(S(=O)(=O)NCC(c2ccco2)N2CCc3ccccc32)cc1 (stereo not drawn)	i	-5%	-1	-27	3.0	u	0.72	u	1.2
CC(C)C[C@@H](CN1CCC[C@@H]1CN1C(=O)C(=O)NC[C@@H]1Cc1ccccc1)N1C[C@H](Cc2ccccc2)N(CC2CCCCC2)C(=O)C1=O	i	x	-8	-21	1.9	0.2	x	x	5.1
C[C@H](CO)N1C[C@H](C)[C@H](CN(C)C(=O)c2ccccc2)Oc2cc(C#C[C@@H](C)O)ccc2S1(=O)=O	i	x	-6	-1	-1.7	-2.5	x	x	x
COc1ccc(NC(=O)CN2CCN(C3c4ccccc4-c4ccccc43)CC2)cc1	x	-3%	x	x	x	x	0.71	-4	2.2
Cc1ccc(-c2ccc3c(c2)O[C@@H](CN(C)C(=O)Nc2ccccc2)[C@H](C)CN([C@@H](C)CO)S3(=O)=O)cc1	i	x	-5	-12	4.3	1.5	x	x	x
C[C@@H]1CN([C@@H](C)CO)C(=O)c2cccc(NS(C)(=O)=O)c2O[C@@H]1CN(C)Cc1ccc(C(=O)Nc2ccccc2N)cc1	i	x	1	4	-0.2	6.6	x	x	x

Four structures already listed, sorted by SMILES length, highest first:
Molecule	FGF22 binding	Vif TR-FRET	Ecoli rRNA inh	Ecoli rRNA inh OD600	Ecoli rRNA inh RFP	MLL AF4-AF9 inh	E coli growth	ALR inh	HNF4A DNA FP
CC(C)C[C@@H](CN1CCC[C@@H]1CN1C(=O)C(=O)NC[C@@H]1Cc1ccccc1)N1C[C@H](Cc2ccccc2)N(CC2CCCCC2)C(=O)C1=O	i	x	-8	-21	1.9	0.2	x	x	5.1
COc1ccc(NC(=O)CN2CCN(C3c4ccccc4-c4ccccc43)CC2)cc1	x	-3%	x	x	x	x	0.71	-4	2.2
COc1ccc(S(=O)(=O)NCC(c2ccco2)N2CCc3ccccc32)cc1 (stereo not drawn)	i	-5%	-1	-27	3.0	u	0.72	u	1.2
CCCNC(=O)c1c(CSc2ccccc2)noc1C(=O)NCc1ccccc1	i	-8%	-17	-24	-9.6	-2.5	0.69	8	-2.8
